# Sa ugtP lethal: growth inhibition of ugtP-null S. aureus, primary screen, RN4220 ugtP deletion, OD600; 16 h; some inactives read as strong as hits; growth inhibition, % (concentration not given with the values); 0.54% of 330,000 active; AID 1259309, 2017;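 active = z-score under -3 and OD600 up to 0.15 on both plates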;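 note: plate controls were untreated wells for no effect and antibiotic for full effect; wells of about 80 µL received 100 nL stock; the first replicate is given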
# PrP UTR inh: inhibition of PrP 5' UTR reporter expression; cell-based PrP 5' UTR mRNA reporter, plate reader; inhibition, % (test concentration not listed); 0.35% of 340,000 active;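 active = every replicate at 50% or more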;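 note: 0 = median of the neutral control wells; tested in H4 reporter cells; numbers are from one replicate; inactives centre near -14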
# BJeLR lethal: MLPCN primary cell-based screen for lethality selective to Ras in HRASV12 cells. 0.17% of 300,000 active. AID 1554, 2009. BJeLR (HRASV12) viability, CellTiter-Glo ATP luminescence, 48 h; reference of the scale not given here. inhibition, % (no concentration beside the values);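 active = replicate mean above 50%; inconclusive = above 50% but judged a plate artefact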;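 note: 50 nL library stock added to about 25 µL; numbers are from one replicate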
# Bead autofluor: compound fluorescence in toxin protease inhibitor counterscreen | 3.1% of 360,000 active | AID 624483 | compound autofluorescence counterscreen, microsphere flow cytometry; hits give high values | fluorescence intensity (concentration not given with the values);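 active = at least 3 SD above the mean of all compounds, about 16000 in these data; inconclusive = too few beads counted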;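 note: 100 nL of 1 mM stock went into each well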
# RN4220 kill: growth inhibition of S. aureus RN4220, primary screen, OD600; 0.33% of 330,000 active; inhibition, % (concentration not given with the values); AID 1259311, 2017; 16 h;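 active = z-score of -3 or lower and OD600 up to 0.18 on both plates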;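 note: plate controls were untreated cells for no effect and reference antibiotic for full effect; stock transfer was 100 nL into about 80 µL; one replicate is shown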
# Mtb hypoxia rep: PubChem AID 1159583; 0.1% of 300,000 active; M. tuberculosis hypoxia-regulated fluorescent reporter, fluorescence; fluorescence inhibition, % (concentration not given with the values);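 active = 35 to 45% if threefold the growth effect, above 45% if 1.5-fold the growth effect; inactive = the rest, general growth blockers included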;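 note: wells of about 50 µL received 100 nL stock; 0% = vehicle wells and 100% = reference inhibitor wells; whole bacteria with a GFP reporter of the hypoxia response; strong numbers were not always called active; many hits fall short of the cut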
# Mtb hypoxia rep growth: further read-out of Mtb hypoxia rep, marked with its call; growth inhibition, %; measured here: M. tuberculosis growth (absorbance);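 0% = vehicle and 100% = reference antibiotic; read after six days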
# Starred values were filed as active, the others as inactive; ? = inconclusive; nt = no result given; & = joins results of further samples.
Compound	Sa ugtP lethal	PrP UTR inh	BJeLR lethal	Bead autofluor	RN4220 kill	Mtb hypoxia rep	Mtb hypoxia rep growth
CC(=O)C1C(C)CC2C3CCC4CC(=O)CCC4(C)C3CCC21C (centres undefined)	-5	-30	nt	3823	9.9	1	26
COc1ccc(NC(=O)N2CCCC(CNS(=O)(=O)c3cccs3)C2)c(C)c1 (centres undefined)	12	-6	-2	4768	-1.5	5	6
Clc1ccc(Nc2ncn[nH]2)cc1	0	6	3	23107*	3.5	4	1
CC(C)NC(=O)CSc1ccccc1C(=O)NNC(=O)Cn1ccc(C(F)(F)F)n1	nt	15	12	4914	nt	nt	nt
CCOc1ccc(-c2nnc(SCC(=O)N3CCN(c4ccccc4)CC3)o2)cc1	0	-28	-10	5916	2.2	nt	nt
CNC(=O)c1[nH]cnc1C(=O)N[C@@H](Cc1ccccc1)C(=O)OCc1ccccc1	nt	-2	-1	3978	nt	nt	nt
CCn1c(SCC(=O)N(C)Cc2ccc(OC)c(F)c2)nc2cc(S(N)(=O)=O)ccc21	6	-16	-17	4205	-3.3	1	-3
CCC(=O)N1CCc2cc(S(=O)(=O)NC(C(=O)Nc3cccc(C)n3)C(C)C)ccc21 (centres undefined)	6	-18	-8	4405	5.1	11	5
CCOc1ccc(C=NOCC(=O)Nc2cc(C)on2)cc1	12	nt	nt	nt	2.7	16	5
CC(C)C(=O)N/N=C/c1ccc(OCc2ccccc2)cc1	nt	-26	1	5110	nt	nt	nt
O=C(CN1C(=O)c2ccccc2S1(=O)=O)N1CCN(c2ccccc2)CC1	5	-11	3	10254	2.6	4	8
COc1ccc(C(=O)C2CCN(C(=S)NCCc3ccccc3)CC2)cc1	4	-18	4	4218	7.5	10	2

Compound	Sa ugtP lethal	PrP UTR inh	BJeLR lethal	Bead autofluor	RN4220 kill	Mtb hypoxia rep	Mtb hypoxia rep growth
Cc1ccc(S(=O)(=O)N2CCC(=O)N(C(COCc3ccc(C(F)(F)F)cc3)Cc3ccccc3)CC2)cc1 (centres undefined)	13	-40	1	3945	1.9	1	4
CCCC(=O)Nc1ccc(C(=O)N/N=C/c2cccnc2)cc1	nt	-45	-1	23205*	nt	nt	nt
CC(C)(C)OC(=O)NCCCCCNC(=O)c1nc[nH]c1C(=O)NCc1ccc(CNC(=O)OC(C)(C)C)cc1	-15	-6	nt	3870	3.4	5	8
Cc1ccc(C)c(S(=O)(=O)N2CCCCC2CCNC(=O)C(=O)NCc2ccccc2)c1 (centres undefined)	7	-19	2	?	4.7	-2	-3
CCOC(=O)C1=C(N)OC(C)=C(C#N)C1c1ccco1 (centres undefined)	-2	0	-9	2731	4.9	-1	-4
COc1ccccc1CN1CCN(Cc2cc(OC)c(OC)cc2OC)CC1	1	16	4	3217	3.2	2	2
COc1cccc2c1-c1c(O)cccc1C2=O	30	-17	-3	4156	2.7	9	-7
NC1=NC(=O)CC(C(=O)Nc2cccc3ccccc23)S1 (centres undefined)	4	-23	-2	4441	1.1	-1	3
CN(C(=O)CSc1nnnn1C)C1(C#N)CCCCC1	4	-9	nt	3388	6.0	16	9
CCOC(=O)N=Nc1c2ccccc2c2nc3no[nH]c3nc12	100*	21	54*	3195	100*	nt	nt
Cc1cc(OC(C)C(N)=O)nc(-c2ccccc2)n1 (centres undefined)	9	-5	1	2714	0.5	-5	1
CCOC(=O)/C(=N\Nc1cccc(Cl)c1)Sc1nnc(-c2ccc(OC)cc2)n1C	nt	-7	-12	2507	nt	nt	nt

Compound	Sa ugtP lethal	PrP UTR inh	BJeLR lethal	Bead autofluor	RN4220 kill	Mtb hypoxia rep	Mtb hypoxia rep growth
O=C(O)Cn1ccnc1	4	-5	2	4889	5.4	5	8
CCOC(=O)C1(Cc2ccccc2C)CCCN(Cc2cc(OC)c(O)c(OC)c2)C1 (centres undefined)	-2	-19	0	4270	4.6	12	-1
Cc1ccc(Cl)c(NC(=O)COC(=O)C2CCC2)c1Cl	1	-20	1	5735	1.1	8	3
COC(=O)COc1ccc(S(=O)(=O)Nc2cc(OC)ccc2OC)cc1	3	nt	6	nt	4.6	6	-1
Cc1cc(C)c2cc(C#N)c(SCC(=O)Nc3cc(C)on3)nc2c1	7	1	4	3582	2.1	-6	-9
COc1ccc(F)cc1S(=O)(=O)N1CCN(c2ccccn2)CC1	7	-24	-13	3792	3.0	12	-10
CC(=O)Nc1ccc2nc(NC(=O)C(Cl)(Cl)Cl)sc2c1	7	-27	-8	4024	2.5	6	-5
COc1ccc(C2(C(=O)NCCc3ccccc3)CCCC2)cc1	6	-7	0	3109	5.6	22	31
COc1ccc(-c2cc(C(=O)OCC(=O)c3ccc(C)c([N+](=O)[O-])c3)c3ccccc3n2)cc1	-13	-32	-2	10199	2.1	1	-14
N#Cc1c(-c2ccccc2)[nH]c(=O)[nH]c1=O	5	5	4	2021	0.6	-3	2
Cc1ccc(-n2nc3c(c2NC(=O)c2ccccc2)CS(=O)(=O)C3)cc1C	-2	-19	-8	5972	0.1	7	14
CC(=O)Nc1ccc(NC(=O)c2cc(=O)c3cc(C)c(C)cc3o2)cc1	9	-5	-2	3603	0.5	14	-9

Compound	Sa ugtP lethal	PrP UTR inh	BJeLR lethal	Bead autofluor	RN4220 kill	Mtb hypoxia rep	Mtb hypoxia rep growth
N#Cc1c(-c2ccco2)nc(SCC(=O)Nc2cccc(Cl)c2)[nH]c1=O	-7	-18	-3	11253	-4.5	3	2
CC1CCN(S(=O)(=O)N2CCC(C(=O)N3CCC(N(C)CC4CCCO4)CC3)CC2)CC1 (centres undefined)	-1	-14	nt	5813	3.3	-4	-2
O=c1oc(/C=C/c2ccc([N+](=O)[O-])s2)nc2ccccc12	13	-14	25	4053	3.9	19	2
COc1ccc(C(Sc2ccccc2)c2ccccc2)cc1OC (centres undefined)	nt	-10	3	3747	nt	nt	nt
NC(=O)CC(NC(=O)Cc1ccc(Br)cc1)c1ccc(NCCc2cccc(F)c2)c([N+](=O)[O-])c1 (centres undefined)	-12	-37	-9	3353	3.4	8	9
O=S(=O)(/N=C(/c1ccc(Cl)cc1)N1CCOCC1)c1ccc(Cl)cc1	nt	-10	0	2763	nt	nt	nt
COc1ccc(CNc2ccc(C)c(C)c2)cc1	7	-6	0	3949	1.2	8	4
CCC(=NNC(=O)c1ccc(N2CCCC2=O)cc1)c1ccccc1	1	nt	nt	nt	1.7	10	1
Cc1cccc(C)c1NC(=O)C(C)N1CCCC1 (centres undefined)	3	1	-3	3490	1.4	3	3
N#Cc1cc(-c2ccccc2)nn1-c1ccccc1	8	-19	-1	4054	7.8	11	9
CCN(CC)CCN(C(=O)CCS(=O)(=O)c1ccccc1)c1nc2cc(C)cc(C)c2s1	4	-2	13	6210	-3.7	nt	nt
CCn1nc(C)c(C=NNC(=O)c2nc3nc(C)cc(C)n3n2)c1C	8	nt	nt	nt	3.4	7	15

Compound	Sa ugtP lethal	PrP UTR inh	BJeLR lethal	Bead autofluor	RN4220 kill	Mtb hypoxia rep	Mtb hypoxia rep growth
CC1CCCN(CC(O)COCC2COc3ccccc3O2)C1 (centres undefined)	-5	-36	-5	2945	1.0	nt	nt
CCOC(=O)c1c(C)[nH]c(C(=O)OCC(O)=C(C#N)c2nc3ccccc3[nH]2)c1C	-5&-18	-41	nt	4386	1.5&-1.8	4&12	2&10
O=C(CSc1nc2ccc(Nc3nc(N4CCOCC4)nc(N4CCOCC4)n3)cc2s1)Nc1ccccc1F	21	-10	nt	5649	8.2	0	14
O=C(NCCC1CCCCN1S(=O)(=O)c1ccc(F)cc1)C(=O)NC1CC1 (centres undefined)	1	-5	-2	?	4.1	-1	-5
COc1cc(CNC23CC4CC(CC(C4)C2)C3)ccc1OCc1ccccc1	-12	-17	3	2746	1.4	nt	nt
CS(=O)(=O)C1=NN2C(=N)/C(=C\c3ccc(OCCOc4ccccc4)cc3)C(=O)N=C2S1	12	-31	3	3681	20	13	18
COc1ccccc1NC(=O)Nc1nnc(Cc2ccc(F)cc2)s1	-4	-8	0	3682	2.9	8	3
CC1=NN(C(=O)c2csc(C(C)C)c2)C(O)(C(F)(F)F)C1 (centres undefined)	10	-1	7	2546	3.0	7	4
COc1ccc(CC(=O)NC(CC(=O)O)c2cccc([N+](=O)[O-])c2)cc1 (centres undefined)	7	-18	-5	4169	7.5	-7	2
COc1cccc(NC(=O)CN(C)C(=O)/C=C/c2cn(-c3ccccc3)nc2-c2cccs2)c1	-1	-23	nt	4409	1.5	2	-1
NC(=NO)c1cccn1Cc1ccccc1[N+](=O)[O-]	5	nt	nt	nt	2.0	12	7
COCCCNC(=O)CCCN1C(=O)c2cccnc2Sc2ccccc21	13	5	-1	3133	2.6	3	-1

Compound	Sa ugtP lethal	PrP UTR inh	BJeLR lethal	Bead autofluor	RN4220 kill	Mtb hypoxia rep	Mtb hypoxia rep growth
Cc1ccc(CN2CCN(/N=C/c3ccccc3)CC2)cc1	nt	-15	1	5511	nt	nt	nt
CCCCC(=O)Nc1cc(OC)c(NC(=S)NC)cc1OC	9	-24	13	4236	2.6	3	6
CCOC(=O)Cn1c(CN2CC(C)OC(C)C2)nc2c1c(=O)n(C)c(=O)n2C (centres undefined)	-5	-39	-1	5677	-7.0	5	10
CCn1c(SCC(N)=O)nnc1-c1ccc(OC)c(OC)c1	2	-25	-9	12030	0.7	14	8
CCOC(=O)CN1C(=O)C(O)=C(C(C)=O)C1c1ccc(F)cc1 (centres undefined)	2	-15	1	5021	1.7	nt	nt
CCN(c1ccccc1)S(=O)(=O)c1ccc(OCC(=O)N2CCCC2)cc1	6	nt	nt	4453	11	8	-1
CCC(CC)C(=O)Nc1cccc(C(=O)NCCc2ccc(S(N)(=O)=O)cc2)c1	3	-7	-1	23028*	2.7	8	4
C=CCc1cc(Cl)ccc1OCCn1ccnc1	7	-21	9	3945	4.4	-1	8
COc1ccc(/C=C\c2nc(=O)c3ccccc3o2)cc1	nt	-18	1	3938	nt	nt	nt
O=C(CN1C(=O)C(=O)N(CCC2=CCCCC2)C1=O)Nc1ccc(F)cc1F	1	-17	nt	9038	5.7	11	9
CCC(=Nc1ccc(OC)cc1OC)c1c(O)n(C2CCCCC2)c(=O)[nH]c1=O	0	6	-1	22084*	-3.4	3	6
CCn1nc(NC(=O)C(C)C)c2cc3ccc(C)cc3nc21	nt	-22	-9	3769	nt	nt	nt

Compound	Sa ugtP lethal	PrP UTR inh	BJeLR lethal	Bead autofluor	RN4220 kill	Mtb hypoxia rep	Mtb hypoxia rep growth
CC(=O)c1ccccc1OCC(O)CN1CCN(c2ccccn2)CC1 (centres undefined)	2	-3	15	4303	-0.5	2	-5
CCOC(=O)N1CCN(S(=O)(=O)c2ccc3c(c2)CCN3C(=O)CC)CC1	9	-17	0	2403	-1.4	nt	nt
COc1cc(C=NNC(=O)CCc2n[nH]c(=O)[nH]c2=O)ccc1O	6	nt	nt	nt	2.9	6	0
CCOc1ccccc1CN1CCC(N2CCC(C(=O)NC3CC3)CC2)CC1	4	-9	3	6367	2.7	2	5
Cc1ccc(Nc2nc(C(=O)N3CCC(C(=O)NC(C)C)CC3)cs2)cc1	2	3	-4	3634	-1.1	12	3
Cc1cccc(C)c1NC(=O)CNC(=O)c1ccc(COc2ccccc2)o1	-6	-17	nt	3506	-1.9	-10	0
O=c1c2c3nc4ccccc4nc3n(Cc3ccccc3)c2ncn1Cc1ccco1	7	-18	nt	3582	4.0	21	34
CCOC(=O)c1ccc(NC(=O)Nc2cc(C)cc(C)n2)cc1	-6	nt	12	nt	2.4	2	10
O=C(COC(=O)c1cnccn1)Nc1ccc(Cl)cn1	7	3	2	?	4.2	4	-6
CCOc1ccc(CCNC(=O)COC(=O)c2ccncc2)cc1OCC	10	nt	nt	nt	5.0	9	9
CC1CCN(CCCn2c(=S)[nH]c3c(sc4ccc([N+](=O)[O-])cc43)c2=O)CC1	6	10	-10	3687	3.5	5	5
Cc1cc2c(cc(C(=O)OC(C(=O)NC3CCCCC3)C(C)C)n2C)o1 (centres undefined)	0	-2	nt	8628	3.5	7	2

Compound	Sa ugtP lethal	PrP UTR inh	BJeLR lethal	Bead autofluor	RN4220 kill	Mtb hypoxia rep	Mtb hypoxia rep growth
Cc1ccc(S(=O)(=O)N2CCOCC2)cc1NC(=O)COC(=O)C1(C)CC1(Cl)Cl (centres undefined)	1	3	nt	4274	0.8	4	-1
CC(Sc1ccccn1)C(=O)NC1CCCC1 (centres undefined)	2	-15	nt	3681	1.7	-2	3
Cc1cc(NC(=O)CN2C(=O)NC3(CCCCC3)C2=O)no1	8	-9	-5	2427	0.0	-3	1
O=C(Nc1ccc(Cl)cn1)c1ccc2c(c1)OCCO2	12	-10	9	4689	4.7	13	2

# Random draw from the library. About 4% of those tested had a hit in this group.
